# Source: PubChem (National Center for Advancing Translational Sciences (NCATS))
# LASV entry inh: qHTS for Inhibitors of binding or entry into cells for Lassa Virus | Lassa virus pseudotype entry inhibition, cell reporter; control for the full effect not named in the record | Potency, µM (highest dose often 37.9 µM), for inactives: top-dose activity change, negative = inhibition, usual class: inhibitors | hit rate 1.2% among 300,000 | AID 540256, 2011; active means well fitted inhibition curve with a large enough effect; inconclusive means small, poorly fitted or top-dose-only effect, or effect the other way; inactive means flat fitted curve, though single readings scatter; tested in HEK293 cells; note: % is set by controls: 0 for no effect and ±100 for the full control effect; nearly all actives have a fitted effect of over 50% in size; luciferase read-out
# SARS PLP yeast: qHTS of Yeast-based Assay for SARS-CoV PLP | S. cerevisiae expressing SARS-CoV PLpro, growth rescue; control for the full effect not named in the record | Potency, µM (highest dose often 32.9 µM), without a hit: at the highest dose activity, positive = growth rescue | hit rate 0.19% among 330,000; note: 0% is about no effect; nearly all actives have a fitted effect of over 55% in size; growth read by luminescence after 48 h
# Cruzain Triton: qHTS Assay for Promiscuous and Specific Inhibitors of Cruzain (with detergent); Cruzipain (Trypanosoma cruzi), P25779; purified cruzain, Z-FR-AMC fluorescence, 0.01% Triton; Potency, µM, inactives show max response, negative = inhibition, actives largely listed as inhibitors; hit rate 0.43% among 200,000; active = well fitted curve in the direction sought with a large enough effect; inconclusive = small, poorly fitted or top-dose-only effect, or another doubt; inactive = no such curve, though single readings can be large; an effect the other way counts as inactive or inconclusive;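 note: plate controls were neutral wells for no effect and buffer without enzyme for full effect; nearly all actives have a fitted effect of over 40% in size; top concentration of the series not given in the record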
# Target sequence (P25779 123-467 limits assumed): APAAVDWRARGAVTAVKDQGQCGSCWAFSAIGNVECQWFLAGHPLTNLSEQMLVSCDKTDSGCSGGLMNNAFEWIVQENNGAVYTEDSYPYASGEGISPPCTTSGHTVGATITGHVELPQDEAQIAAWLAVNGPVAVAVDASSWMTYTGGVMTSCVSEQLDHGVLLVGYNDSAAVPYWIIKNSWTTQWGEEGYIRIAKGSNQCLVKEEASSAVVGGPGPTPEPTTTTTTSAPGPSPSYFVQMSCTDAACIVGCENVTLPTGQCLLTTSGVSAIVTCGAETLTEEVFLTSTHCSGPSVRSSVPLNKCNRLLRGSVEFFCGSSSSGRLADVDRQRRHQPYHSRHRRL
#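 Compounds were screened in titration against cruzain (1.5 nM) with 0.01% Triton X-100 to counter colloidal aggregation. Activity was the AMC fluorescence increase over 60 s after adding 2 uM Z-FR-AMC at pH 5.5.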
# RE007 growth inh: qHTS Assay for Inhibitors of the HIV-1 protein Vpr | hit rate 0.21% among 360,000 | Potency, µM (series often up to 92.2 µM), for inactives: at the top dose activity change, negative = less growth | S. pombe RE007 Vpr strain, BacTiter-Glo ATP luminescence, 24 h; control for the full effect not named in the record; active = well fitted falling curve with a large enough effect; inconclusive = small, poorly fitted or top-dose-only effect; inactive = no such curve, though single readings can be large or run the other way;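 note: % is set by controls: 0 for no effect and ±100 for the full control effect; nearly all actives have a fitted effect of over 50% in size; the assay follows cell death caused by Vpr and the record does not say whether a fall means rescue or toxicity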
#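 Fission yeast RE007 carrying one integrated HIV-1 vpr copy, seeded at OD 0.01 in PMG+AL medium with 23 nL pinned compound. Grown 24 h at 30 degrees; viability read by BacTiter-Glo luminescence after 5 min.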
# Cruzain noTriton: qHTS Assay for Promiscuous and Specific Inhibitors of Cruzain (without detergent); hit rate 2.3% among 200,000; Potency, µM, for inactives: max response, negative = inhibition, most hits filed as inhibitors; Cruzipain (Trypanosoma cruzi), P25779; purified cruzain, Z-FR-AMC fluorescence, no detergent; active = well fitted curve in the direction sought with a large enough effect; inconclusive = small, poorly fitted or top-dose-only effect, or another doubt; inactive = no such curve, though single readings can be large; an effect the other way counts as inactive or inconclusive;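 note: plate controls were enzyme without inhibitor for no effect and buffer without enzyme for full effect; nearly all actives have a fitted effect of over 40% in size; top concentration of the series not given in the record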
#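 Purified cruzain at 1.5 nM, pre-incubated 15 min with compound at room temperature in 100 mM sodium acetate pH 5.5, 5 mM DTT, 0.00005% Triton X-100. Reaction started with 2 uM Z-FR-AMC; AMC fluorescence increase over 60 s gives rate.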
# NS1 inh: qHTS Assay for Inhibitors of Influenza NS1 Protein Function; Potency, µM (highest dose often 46.1 µM), inactives show top-dose activity, positive = more growth; hit rate 0.4% among 270,000; S. cerevisiae slowed by influenza A NS1, growth recovery by OD600; note: actives are rising curves; nearly all actives have a fitted effect of over 50% in size
#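 Read-out: OD600 growth recovery of NS1-expressing budding yeast. Cells grown overnight at 30C in -URA glucose medium, washed, resuspended and diluted 1:100 in 2% galactose assay medium, pH 6.0. Same strain lacking NS1 served as positive control.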
# StopGo reporter: High Throughput Screening for Foot and Mouth Disease Virus Antivirals; human cells with a luciferase reporter of 2A StopGo recoding; control for the full effect not named in the record; Potency, µM (doses to about 57.9 µM), without a hit: top-dose signal change, negative = less light; hit rate 1.2% among 410,000; AID 1159524, 2015; active = well fitted falling curve with a large enough effect; inconclusive = small, poorly fitted or top-dose-only effect; inactive = no such curve, though single readings can be large or run the other way; tested in HEK293T cells; note: % is set by controls: 0 for no effect and ±100 for the full control effect; nearly all actives have a fitted effect of over 45% in size; luciferase light after 4 h
# Marburg entry inh: qHTS for inhibitors of binding or entry into cells for Marburg Virus | Marburg virus pseudotyped entry inhibition, cell reporter; control for the full effect not named in the record; about a third of the inactives were read at about 46 µM | hit rate 1.8% among 300,000 | Potency, µM (doses to about 37.8 µM), without a hit: at the highest dose activity change, negative = inhibition, most hits filed as inhibitors; active = well fitted inhibition curve with a large enough effect; inconclusive = small, poorly fitted or top-dose-only effect, or effect the other way; inactive = flat fitted curve, though single readings scatter; tested in HEK293 cells; about a fifth of its hits are not listed in these tables; note: % is set by controls: 0 for no effect and ±100 for the full control effect; luciferase read-out
# An asterisk follows results filed as active; ? = inconclusive; nt = not tested or not shown; & = joins results of further samples; [ ] = another dose, or the depositor's remark. Unless noted, calls come from the whole dose curve; as a rule, active means well fitted rising curve with a large enough effect; inconclusive means small, poorly fitted or top-dose-only effect; inactive means no such curve, though single readings can be large or run the other way. Potency is the fitted concentration of half-maximal effect.
molecule	RE007 growth inh	SARS PLP yeast	LASV entry inh	Cruzain noTriton	StopGo reporter	NS1 inh	Marburg entry inh	Cruzain Triton
CCOC(=O)NC(=O)CN1C(=O)NC2(CCc3ccccc32)C1=O (centres undefined)	-12%	0%	5%	nt	-4%	3%	17%[46.1 µM]	nt
CN(C)C(=O)CSc1nnc(CCNC(=O)OC(C)(C)C)o1	-25%	11%	-2%	-13%	16%	4%	9%	-3.8%
CCOc1ccc(S(=O)(=O)N(CC)CC(=O)N2CCCC2)cc1	-2%	3%	nt	nt	2%	10%	nt	nt
Fc1ccc2c(c1)[C@H]1OCC[C@H]1[C@@H](c1ccco1)N2	-5%	-7%	-7%	-5%	10%	-8%&-5%	-7%	-1.2%
Cc1cccc(C)c1OCc1cc(C(=O)NC2CCC2)no1	6%	-7%	nt	nt	34%[activator]	-9%	nt	nt
COC(=O)c1cc2sccc2n1Cc1nc(-c2ccc(OC)cc2)oc1C	-25%	5%	?	-3%	nt	-40%	?	-3.3%
CCc1nc(C)cc(N)c1OCc1ccccc1	-1%	-1%	10%	-1%	-11%	0%	?	-0.6%
Cc1cc(C)c(NC(=O)CSc2ccc(-c3ccccn3)nn2)c(C)c1	1%	-3%	-18%	14%	-2%&-3%	15%	-9%&-9%	0.4%
COCC1CCCN(C(=O)c2cc(COc3cccc4cccnc34)on2)C1 (centres undefined)	0%	0%	4%	nt	-14%	0%	?	nt
COc1ccc(S(=O)(=O)N2CCOCC2)cc1NC(=O)c1ccc(=O)[nH]c1	-11%	2%	?	nt	-4%	nt	?	nt
O=C(Nc1nc(-c2cccnc2)cs1)c1ccc(S(=O)(=O)N2CCOCC2)cc1	-4%	-19%	-20%	-3%	?	-11%	-21%	7.1%
COc1cc(C(=O)Nc2ccc(S(=O)(=O)NC(C)C)cc2)cc(OC)c1OC	0%	4%[6.58 µM]	3%	0%	23%	0%	24%	-0.9%
CCN(CC)CCN(C(=O)c1ccc(S(=O)(=O)N(C)C2CCCCC2)cc1)c1nc2c(C)cccc2s1	-10%	4%	?	nt	?	3%	?	nt
CNC(=O)CN1C(=O)c2ccccc2S1(=O)=O	-7%	4%	nt	6%	19%	5%	nt	1.9%
O=C(NCC1(c2ccccc2)CCCC1)C(=O)Nc1cccc(C(F)(F)F)c1	nt	nt	4%[46.1 µM]	5%	-22%	nt	30%[46.1 µM]	1.9%
Cc1noc(C)c1CCC(=O)N1CCCC(CCC(=O)NCc2ccc(F)c(F)c2)C1 (centres undefined)	24%	1%	nt	nt	-1%	-4%	nt	nt
CCOC(=O)c1[nH]c(C)c(C(=O)N2CCC3(CC2)OCCO3)c1C	6%	-1%	-5%	3%	23%	-2%	5%	0.9%
Cc1n[nH]c(C)c1CCNCc1ccc(OCC(O)CN2CCCCC2)cc1 (centres undefined)	-13%	-1%	5%	nt	-7%	2%	?	nt
CCOC(=O)c1ccc(COc2ccc(C(C)C)cc2)o1	-1%	-1%	?	nt	5%	-6%	?	nt
COc1ccc2c(c1)-c1nc(NC(=O)c3ccc(Cl)cc3)sc1CC2	nt	nt	-13%[46.1 µM]	?	?	nt	1%[46.1 µM]	-6.8%
CC(=O)c1cccc(Nc2nn(-c3ccc(OC(F)(F)F)cc3)nc2C(C)=O)c1	nt	nt	13%[46.1 µM]	13%	-8%	nt	?	-9.3%
COc1cc(NCCCCCCN)c2ncccc2c1OC	-15%	nt	?	nt	?	nt	?	nt
O=C(COc1ncnc2ccccc12)Nc1cccc(S(=O)(=O)N2CCOCC2)c1	0%	13%	1%	-22%	21%	7%	16%	-1.9%
COc1ccc(C(C)NC(=O)c2ccc([N+](=O)[O-])cc2)cc1OC (centres undefined)	-7%	-12%	-5%	14%	-24%	-19%	9%	0.2%
Cc1cccc(NC(=O)C(c2cccc([N+](=O)[O-])c2)N2CCCCC2)c1 (centres undefined)	18%	4%	15%	-11%	-9%	-3%	-31%	-5.6%
O=C1CCN1C1(C(=O)NC2CCCCC2)CCCC1	0%	-2%	-9%	-2%	0%	9%	-13%	1.7%
O=C(O)c1ccccc1-c1ccccc1C(=O)Nc1cccc(Br)c1	-9%	1%	-1%	nt	-18%	8%	13%	nt
COc1cccc(NC(=S)/C(=C(\[O-])c2ccc(C)c([N+](=O)[O-])c2)[n+]2ccccc2)c1	-14%	-2%	0%	25µM*	41%[activator]	-1%	0%	-9.8%
CCOC(=O)c1ccc(CNC(=O)C2CCCCC2C(=O)OCC(F)(F)F)o1 (centres undefined)	-4%	-1%	6%	-1%	0%	-1%	1%	6.6%
NNC(=O)Cn1nc(-c2ccccc2)c2ccccc2c1=O	3%	1%	nt	nt	1%	9%	nt	nt
NC(=NCCc1c[nH]c2ccccc12)NS(=O)(=O)c1ccc(F)cc1	22%	1%	3%	4%	?	-12%	?	-4.0%
Cc1occc1C(=O)Nc1c(F)cc(F)cc1Br	101%	1%	-22%[14.3 µM]	4%	15%	1%	-10%	5.7%
O=C(C[n+]1cccc(CO)c1)Nc1nc2ccccc2s1	1%	1%	nt	nt	0%	2%	nt	nt
CCn1c(=O)c([N+](=O)[O-])c(N2CCOCC2)c2ccccc21	-8%	-1%	4%	1%	-15%	18%	38%	0.6%
CCCCN(CC)C(=O)c1cc2c(=O)[nH]c3ccc(C)cc3c2s1	-4%	-1%	nt	nt	-21%	1%	nt	nt
COc1ccc(-n2c(CCc3ccccc3)nnc2SCC(=O)c2ccc(Cl)cc2)cc1	2%	4%	-29%	?	-29%	?	-30%	3.4%
COc1ccc(CCC(=O)N(C)CC(=O)Nc2ccc(Cl)c(C(F)(F)F)c2)cc1	-14%	-3%	-6%	nt	-26%	-67%	-15%	nt
CC(C)(C)NS(=O)(=O)c1ccc(OCC(=O)NCc2ccco2)cc1	29%	1%	-10%	nt	40%[activator]	-1%	0%[46.1 µM]	nt
Cc1c(OC(C)C(=O)NCCCN2CCCC2=O)ccc2c3c(c(=O)oc12)CCCC3 (centres undefined)	-7%	0%	-13%[46.1 µM]	nt	-10%	-2%	14%[46.1 µM]	nt
COc1ccc([N+](=O)[O-])cc1NCC(=O)Nc1cccc(S(=O)(=O)N2CCCC2)c1	10%	-3%	-11%	nt	-2%	nt	?	nt
O=C(NNC(=O)c1cc(-c2ccncc2)nc2ccccc12)c1cccc(Cl)c1	7%	1%	-8%[46.1 µM]	nt	48%[activator]	nt	?	nt
O=C1N[C@@H](Cc2ccccc2)C(=O)N2CCC[C@@H]12	-5%	1%	?	nt	7%	10%	-7%	nt
O=C(Cc1cccc(F)c1)N1CCCC(CO)(Cc2ccc(F)cc2F)C1 (centres undefined)	-4%	-1%	nt	nt	-17%	-4%	nt	nt
Cc1ccc(SCC(=O)n2nc(C)cc2C)cc1	6%	2%	2%	2%	8%	10%	?	-3.6%
Cc1cc(C)cc(NS(=O)(=O)c2ccc(N3CCCCS3(=O)=O)cc2)c1	nt	nt	?	9%	10%	nt	nt	-6.2%
Cc1ccc(Cn2cc(CCC(=O)NCc3ccccc3F)c3ccccc32)cc1	nt	nt	?	-16%	-7%	nt	nt	-6.3%
COc1cc2c(cc1OC)C(c1ccccc1)=NCC2	2%	-2%	?	-6%&-6%	-6%&-22%	15%	?	-0.1%&-6.0%
Nc1ncncc1-c1ccccc1Cl	4%	nt	2%[46.1 µM]	nt	-8%	nt	-12%[46.1 µM]	nt
O=C(COc1ccccc1C(=O)Nc1ccccc1)c1ccc(F)cc1	1%	1%	4%	nt	-13%	nt	-11%[46.1 µM]	nt
O=C(NCCC1=CCCCC1)c1ccc2c(c1)sc1nc(-c3ccc(F)cc3)cn12	nt	nt	6%[46.1 µM]	7%	-4%	nt	nt	-1.3%

# (continued)
molecule	RE007 growth inh	SARS PLP yeast	LASV entry inh	Cruzain noTriton	StopGo reporter	NS1 inh	Marburg entry inh	Cruzain Triton
C=CCOc1ccc(C2=NOC(C(=O)Nc3ccc4c(c3)OCCO4)C2)cc1OC (centres undefined)	-24%	1%	-19%	nt	-26%	-10%	?	nt
O=C(NCCc1csc(-c2cccnc2)n1)c1cccc2ccccc12	-11%	-9%	nt	1%	-30%	-9%	nt	-8.7%
O=C(CSc1oc(-c2ccc(F)cc2)nc1S(=O)(=O)c1ccccc1)NCC1CCCO1 (centres undefined)	-17%	7%	-20%	6%	-12%	-4%	?	-1.0%
COc1ccc(NC(=O)COc2ccc(N(C)S(=O)(=O)c3ccc(Cl)cc3)cc2)cc1OC	-1%	-1%	?	nt	10µM*	nt	?	nt
O=C1[C@@H]2CSCN2C(=O)CN1Cc1cccc(C(F)(F)F)c1	2%	0%	?	nt	-2%	2%	-12%[46.1 µM]	nt
COC(=O)c1sc(NC(=O)c2ccco2)nc1C	-6%	-1%	?	-14%	30%[activator]	-43%	13%	-1.4%
Nc1c(Cl)cc([N+](=O)[O-])cc1Cl	-11%	4%	nt	-8%	-4%	nt	nt	-2.0%
O=c1c2ccccc2n2cnnc2n1-c1ccccc1	8%	2%	0%	-12%	-18%	4%	-4%	4.2%
COc1ccc(CCNC(=O)CCc2c(C)nc3c(c(C)nn3-c3ccc(C)c(C)c3)c2C)cc1OC	nt	nt	?	-6%	?	nt	2%[46.1 µM]	0.4%
CCCCN1C(=O)c2ccc(C(=O)Nc3ccccc3N3CCOCC3)cc2C1=O	4%	-1%	3%	nt	-16%	2%	12%	nt
COC(=O)CCCC1=CC2=CC(=O)C(C)(OC(=O)c3cccs3)C(=O)C2=CN1Cc1ccccc1 (centres undefined)	-14%	4%	nt	nt	0%	?	nt	nt
c1ccc(C2CC(c3cccs3)=NN2c2ccccc2)cc1 (centres undefined)	1%	0%	?	nt	-11%	1%	?	nt
COC(=O)c1sc(NC(=O)Cc2cccs2)nc1C	12%	-6%	24%[14.3 µM]	-9%	20%	-10%	28%	-1.5%

# Random draw from the library, and some 4.7% of all compounds hit somewhere here.
